Screening results from PubChem.
PV pol inh = inhibitors of poliovirus RNA polymerase binding and polymerization; P03300; poliovirus polymerase elongation, fluorescence polarization; stronger effect = lower value; % elongation, % (compound at 16.7 µg/mL); 150,000 compounds, 0.66% hits; AID 588519; in the data active means % elongation below about 90%; further: some results filed as inactive read as strong as hits
Target sequence (P03300 1749-2209 limits assumed): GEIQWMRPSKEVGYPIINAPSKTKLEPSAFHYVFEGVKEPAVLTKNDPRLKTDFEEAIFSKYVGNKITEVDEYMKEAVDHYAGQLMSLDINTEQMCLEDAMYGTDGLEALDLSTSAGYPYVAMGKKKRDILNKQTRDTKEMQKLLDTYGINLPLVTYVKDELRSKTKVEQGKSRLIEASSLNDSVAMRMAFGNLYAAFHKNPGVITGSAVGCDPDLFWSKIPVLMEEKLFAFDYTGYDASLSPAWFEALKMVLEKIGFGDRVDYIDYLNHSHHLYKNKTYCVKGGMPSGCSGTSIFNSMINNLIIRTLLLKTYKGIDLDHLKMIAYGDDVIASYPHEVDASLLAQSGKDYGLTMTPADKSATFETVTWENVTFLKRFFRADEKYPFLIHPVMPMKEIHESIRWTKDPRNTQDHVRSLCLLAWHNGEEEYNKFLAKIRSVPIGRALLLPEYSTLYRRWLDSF
PV pol inh intensity = also measured in PV pol inh; calls as there; % elongation; measured here: total intensity read-out; formula for this scale not given here;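 total fluorescence in place of polarization; lower means less elongation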
The depositor's hits bear a star. Some of the compounds tested; rates above refer to the full screens.

The first four compounds (preview)
SMILES | PV pol inh | PV pol inh intensity
COc1cc(C2CC(=O)c3c([nH]c(C(=O)OCc4ccc(C)cc4)c3C)C2)cc(OC)c1OC (stereo not given) | 103.0 | 106.0
Cc1ccc(Cl)cc1N1CCN(C(=O)C2CCN(S(=O)(=O)c3c(C)noc3/C=C/c3ccccc3F)CC2)CC1 | 105.0 | 110.0
Cc1cccn2c(=O)c(C(=O)N3CCN(c4ccccc4)CC3)cnc12 | 110.0 | 106.0
Cc1csc2nc(COC(=O)c3ccc(NC(=O)C(C)C)cc3)cc(=O)n12 | 103.0 | 98.0

All compounds of this part (from the top)
SMILES | PV pol inh | PV pol inh intensity
COc1cc(C2CC(=O)c3c([nH]c(C(=O)OCc4ccc(C)cc4)c3C)C2)cc(OC)c1OC (stereo not given) | 103.0 | 106.0
Cc1ccc(Cl)cc1N1CCN(C(=O)C2CCN(S(=O)(=O)c3c(C)noc3/C=C/c3ccccc3F)CC2)CC1 | 105.0 | 110.0
Cc1cccn2c(=O)c(C(=O)N3CCN(c4ccccc4)CC3)cnc12 | 110.0 | 106.0
Cc1csc2nc(COC(=O)c3ccc(NC(=O)C(C)C)cc3)cc(=O)n12 | 103.0 | 98.0
COc1ccc(Cl)cc1NS(=O)(=O)c1ccc2[nH]c3c(c2c1)CCCC3 | 111.0 | 115.0
COc1ccc(-c2nc3c4ccccc4n(CC(=O)N4CCN(c5ccc(F)cc5)CC4)c(=O)n3n2)cc1 | 111.0 | 99.0
Cc1ccc(C)c(-n2cc(-c3ccccc3)nc2SCC(=O)Nc2ccccc2)c1 | 111.0 | 105.0
COC(=O)c1ccc(CSc2nc3ccncc3n2Cc2ccc(F)cc2)cc1 | 114.0 | 112.0
CCCN(CCC)C(=O)Cn1c(=O)n(-c2ccc(C)cc2)c(=O)c2ccc(C(=O)NCc3ccccc3Cl)cc21 | 103.0 | 105.0
CCOc1ccc(NC(=O)CCNS(=O)(=O)c2cccs2)cc1 | 107.0 | 111.0
CC(=O)N1CCc2cc(CNS(=O)(=O)c3ccc(F)cc3)ccc21 | 112.0 | 105.0
Cc1ccc(S(=O)(=O)c2cn(Cc3ccccc3Cl)c3ccc(F)cc3c2=O)cc1 | 102.0 | 102.0
Cc1ccccc1C(=O)Nc1ccc(C(=O)OCc2cc(=O)n3c4c(sc3n2)CCCC4)cc1 | 109.0 | 96.0
Cc1ccc(C(=O)Nc2cccc(OCc3cc(=O)n4c5c(sc4n3)CCCC5)c2)cc1 | 101.0 | 101.0
CCCn1c(=O)c2sccc2n2c(CCCC(=O)N3CCN(c4ccccc4)CC3)nnc12 | 118.0 | 120.0

Two of the compounds above, with values under each structure:
Results follow in this order: PV pol inh	PV pol inh intensity
CC(=O)N1CCc2cc(CNS(=O)(=O)c3ccc(F)cc3)ccc21
    112.0	105.0
Cc1ccc(S(=O)(=O)c2cn(Cc3ccccc3Cl)c3ccc(F)cc3c2=O)cc1
    102.0	102.0

Additional entries follow:
SMILES | PV pol inh | PV pol inh intensity
Cc1cc(Br)ccc1NC(=O)c1cc2c(s1)-c1ccccc1SC2 | 105.0 | 105.0
O=C(Nc1ccc(Br)cc1)C1CCN(c2cnccn2)CC1 | 109.0 | 113.0
CCc1ccc(NC(=O)C(CC)n2nnc(C(=O)OC)c2C(=O)OC)cc1 (stereo not given) | 113.0 | 114.0
O=C(NCCc1ccccc1)C(=O)NCC(c1cccs1)S(=O)(=O)c1cccs1 (stereo not given) | 104.0 | 100.0
Cc1ccc(NC(=O)C2CCN(S(=O)(=O)c3ccc4c(c3)CCCC(=O)N4)CC2)c(Cl)c1 | 107.0 | 106.0
Cc1ccc(Cl)cc1NC(=O)N1CCc2cc(S(=O)(=O)N3CCC(C)CC3)ccc21 | 109.0 | 112.0
CCOC(=O)c1ccc(NC(=O)CSc2nc(-c3ccc(F)cc3)cc(C(F)(F)F)c2C#N)cc1 | 100.0 | 111.0
CCc1nnc2c3ccccc3nc(N3CCN(c4ccc(C)cc4C)CC3)n12 | 109.0 | 112.0
COc1ccc(OC)c(CNC(=O)c2ccc(Sc3ccc(C)cc3)c(N)c2)c1 | 108.0 | 110.0
CC(C)c1ccc(NC(=O)c2cnc3sc(N4CCCC4)nn3c2=O)cc1 | 113.0 | 112.0
CCCc1noc(-c2ccc(NCc3ccc(C)cc3)c([N+](=O)[O-])c2)n1 | 111.0 | 120.0
COc1ccc(CCCc2nnc(SCC(=O)Nc3ccc(OC)cc3)o2)cc1 | 108.0 | 108.0
CCOc1ccccc1NC(=O)c1c2c(nc3ccccc13)C(=O)N(C1CCCCC1)C2 | 111.0 | 116.0
CCC1CN(S(=O)(=O)c2cc(-c3cc(C)no3)ccc2C)c2cc(Cl)ccc2O1 (stereo not given) | 104.0 | 109.0
COc1cccc(NS(=O)(=O)c2cc(-c3cnc(C4CC4)o3)ccc2C)c1 | 101.0 | 103.0
Cc1ccc(-c2nc3scc(CCNS(=O)(=O)c4ccc(C)c(C)c4)n3n2)cc1 | 114.0 | 108.0
CCC1CCCCN1S(=O)(=O)c1ccc(NC(=O)c2nc(SC)ncc2Cl)cc1 (stereo not given) | 118.0 | 117.0
CCOc1ccc2oc(=O)cc(CN3CCN(c4ccccc4OC)CC3)c2c1 | 106.0 | 113.0
COc1ccc2c(c1)c(N1CCCC1=O)c(C(=O)Nc1ccc(OC)c(Cl)c1)n2C | 106.0 | 108.0
O=C(COCc1cc(-c2cccs2)on1)Nc1cc(Cl)ccc1O | 99.0 | 100.0
NC(=O)c1cc(S(=O)(=O)NCC2CCC(C(=O)Nc3cccc(Cl)c3)CC2)cs1 (stereo not given) | 102.0 | 107.0
O=C(Nc1ccc(F)cc1)c1oc2ccccc2c1NC(=O)C12CC3CC(CC(C3)C1)C2 | 104.0 | 104.0
Cc1ccc(CN2C(=O)c3ccccc3C2C(=O)NC2CCCCCC2)cc1 (stereo not given) | 107.0 | 109.0
Cc1ccc(-n2ncc3c(Nc4cccc(Cl)c4)ncnc32)c(C)c1 | 104.0 | 100.0
CCOc1ccc(NC(=O)Cn2c(=O)cc(C)c3c(C)nn(C)c32)cc1 | 99.0 | 108.0
COc1cccc(/C=C/c2onc(C)c2S(=O)(=O)N2CCC(C(=O)N3CCCCC3)CC2)c1 | 100.0 | 94.0
COc1ccccc1CCNC(=O)Cn1ccc2cc(S(=O)(=O)N3CCCCCC3)ccc21 | 102.0 | 106.0
COC(=O)c1ccc(NC(=O)CCc2c(C)nc3c(c(C)nn3-c3ccc(C)cc3)c2C)cc1 | 102.0 | 106.0
O=C(NCc1cccc(Cl)c1)c1ccc(CS(=O)Cc2ccccc2Cl)o1 (stereo not given) | 108.0 | 111.0
Cn1c(=O)[nH]c2cc(-c3noc(-c4ccc(F)cc4)n3)ccc21 | 112.0 | 101.0

(further entries)
smiles,PV pol inh,PV pol inh intensity
COc1ccccc1N1CCN(C(=O)c2cc3c(s2)-c2ccccc2OC3)CC1,102.0,91.0
CCOC(=O)N1CCc2c(sc(NCc3sccc3C)c2C(=O)Nc2ccccc2OCC)C1,111.0,118.0
CCc1ccccc1NC(=O)CCn1cccn1,110.0,101.0
COc1ccc(CCNC(=O)CSc2cn(CCNC(=O)c3cccc(C(F)(F)F)c3)c3ccccc23)cc1OC,105.0,110.0
O=C(Cc1ccccc1)Nc1c(C(=O)Nc2ccccc2F)oc2ccccc12,98.0,101.0
Cc1ccc2c(c1)C(=O)OC(C(=O)Nc1ncc(Cc3ccccc3)s1)C2 (stereo not given),107.0,110.0
N#Cc1ccccc1Cn1c(=O)n(CCCCC(=O)NCc2ccc3c(c2)OCO3)c(=O)c2ccccc21,109.0,107.0
Cc1ccc(NC(=O)Cn2c(=O)n(CCC(=O)NCCc3ccccc3)c(=O)c3ccccc32)cc1,111.0,112.0
CC1CCc2c(sc(NC(=O)c3cc(-c4ccc(Br)cc4)on3)c2C(N)=O)C1 (stereo not given),99.0,99.0
CCOc1ccc(NC(=O)Cn2c(=O)n(CCCCCC(=O)NCc3ccccc3)c(=O)c3sccc32)cc1,102.0,105.0

Compound profiles (already shown).
`Cc1ccccc1C(=O)Nc1ccc(C(=O)OCc2cc(=O)n3c4c(sc3n2)CCCC4)cc1` is entered as PV pol inh = 109.0; PV pol inh intensity = 96.0
`Cc1ccc(C)c(-n2cc(-c3ccccc3)nc2SCC(=O)Nc2ccccc2)c1` is entered as PV pol inh = 111.0; PV pol inh intensity = 105.0

(listing goes on)
smiles,PV pol inh,PV pol inh intensity
CC(C)(C)OC(=O)N1CCC(c2c(C(=O)NCCN3CCOCC3)cnn2-c2ccccc2)CC1,109.0,112.0
CN(CC(=O)NCc1ccccc1Cl)S(=O)(=O)c1ccc2c(c1)c(=O)n(C)c(=O)n2C,101.0,99.0
CCCCNC(=O)C(CC)Sc1nc2ccccc2c(=O)n1Cc1ccco1 (stereo not given),104.0,109.0
Cc1ccc(-c2cnc(C3CC3)o2)cc1S(=O)(=O)Nc1ccc(F)cc1Cl,109.0,98.0
Cc1cccn2c(=O)c3cc(C#N)c(=O)n(-c4nnc(SCc5ccc(F)cc5)s4)c3nc12,106.0,106.0
CCOC(=O)c1cc2c(=O)n3ccccc3nc2n(CC(C)C)c1=NC(=O)C(C)(C)Oc1ccc(Cl)cc1,103.0,106.0
CCCC(=O)N(c1ccc2oc(C)c(C(C)=O)c2c1)S(=O)(=O)c1ccc(CC)cc1,101.0,108.0
CC(=O)N1CCOc2cc(S(=O)(=O)NCc3ccccc3Cl)c(Cl)cc21,100.0,101.0
CCc1ccc(C(=O)c2cn(CC(=O)Nc3cccc(C)c3C)c3nc(C)ccc3c2=O)cc1,104.0,102.0
Cc1ccc(C)c(NC(=O)CSc2nc(=O)n(Cc3ccncc3)c3c2CCC3)c1,110.0,108.0
O=C(Cn1c(=O)n(CCCS(=O)(=O)C2CCCCC2)c(=O)c2ccccc21)Nc1ccc(F)c(Cl)c1,107.0,106.0
Cc1nn(-c2ccccc2)c(OC(=O)c2ccccc2Cl)c1S(=O)(=O)c1ccccc1,105.0,109.0
Cc1ccc(S(=O)(=O)NCC(c2ccco2)N2CCN(c3ccccc3F)CC2)cc1 (stereo not given),115.0,113.0
Cc1ccc(Cl)cc1N1CCN(C(=O)c2cnc(N3CCOCC3)c3ccccc23)CC1,104.0,98.0
CN(C)CCCN(C(=O)c1ccc2c(c1)OCCO2)c1nc2ccccc2s1,109.0,109.0
COc1cccc(CNC(=O)c2ccc3c(c2)nc2n3CCC(C)C2)c1OC (stereo not given),105.0,111.0
O=C(c1ccc(Nc2nc3ccccc3n3nnnc23)cc1)N1CCN(c2cccc(C(F)(F)F)c2)CC1,102.0,106.0
O=C(NCCc1ccc(Cl)cc1)c1ccc(Nc2nc3ccccc3n3nnnc23)cc1,106.0,110.0
COc1ccc(S(=O)(=O)N2CCN(c3cccc(C)c3C)CC2)c2ccccc12,103.0,101.0
Cn1c(=O)n(C)c2cc(N3CCCCC3)c(NC(=O)c3ccc(C(C)(C)C)cc3)cc21,106.0,106.0
CCCCCn1c(CCCNC(=O)c2cccc(C)c2)nc2ccccc21,104.0,106.0
CCn1c2c(c(=O)n3ncc(C(=O)Nc4cc(Cl)ccc4OC)c13)CN(Cc1ccc(OC)cc1)CC2,109.0,109.0
Cc1ccc(F)cc1NC(=O)CCSc1nc(-c2ccco2)cc(C(F)(F)F)n1,101.0,105.0
Cc1ccccc1CSc1nc(-c2cccc(F)c2)nc2c1Cc1c(CO)cnc(C)c1O2,110.0,113.0
COc1cccc(CNC(=O)c2c(C)oc3nc(C)nc(N4CCOCC4)c23)c1,105.0,104.0
CSc1ncc(C(=O)N2CCN(c3cccc(C(F)(F)F)c3)CC2)c(C)n1,110.0,119.0
COc1cc(OC)cc(-c2nc3nc(C)c(CCC(=O)Nc4ccc(C)cc4C)c(C)n3n2)c1,104.0,106.0
COc1ccccc1NC(=O)N(Cc1ccc2c(c1)OCO2)C1CCN(Cc2ccccc2)CC1,110.0,102.0
COc1ccccc1N1CCN(S(=O)(=O)c2cc3[nH]c(=O)c(=O)[nH]c3cc2C)CC1,103.0,107.0
O=C(c1cccc(Cl)c1)N1c2nc(-c3ccco3)nn2C2(CCCCC2)[C@@H]2CCCC[C@@H]21,106.0,112.0
Cc1ccc(N2C(=O)CS(=O)(=O)C23C(=O)N(Cc2ccc(Cl)cc2)c2ccccc23)cc1C (stereo not given),108.0,110.0
CCc1cccc(NC(=O)CCn2nc(C)cc2C)c1,107.0,112.0
Cc1cc(C)n(C(C)CC(=O)NCc2ccccc2C)n1 (stereo not given),110.0,101.0
COC(=O)c1ccccc1NC(=O)c1sc2nc(C)cc(C)c2c1NC(=O)c1ccccc1OC,103.0,112.0
CCC(=O)N1c2ccccc2C(C)(c2ccccc2)CC1(C)C (stereo not given),105.0,108.0
COc1cc(Cl)c(C)cc1NC(=O)c1cnc2c(-c3cccc(C)c3)c(C)nn2c1C,104.0,115.0
CC(=O)N1CCC2(CC1)OC(=O)C(C)=C2C(=O)NCc1ccc(Cl)cc1,109.0,113.0
O=C(CSc1nc2c([nH]c3ccccc32)c(=O)n1-c1cccc(C(F)(F)F)c1)N1CCc2ccccc21,108.0,106.0
CCc1ccc(S(=O)(=O)c2cn(C)c3ccc(C)cc3c2=O)cc1,105.0,105.0
CCOc1ccc(OCC(=O)NCCS(=O)(=O)N2CCN(c3ccc(OC)cc3)CC2)cc1,107.0,113.0
CCOC(=O)c1c(NC(=O)COc2cccc(C(F)(F)F)c2)sc2c1CCCCC2,90.0*,89.0*
Cc1cc2ccccc2n1-c1ccc(C(=O)N2CCC(C(=O)NCc3ccc(Cl)cc3)CC2)s1,113.0,109.0
COCCn1c(C)cc(O)c(C(c2ccccc2OC)N2CCN(c3ccccc3)CC2)c1=O (stereo not given),112.0,114.0
Cc1ccc(C)c(NC(=O)Cn2cnc3nc4c(cc3c2=O)CCCC4)c1,105.0,104.0
CC(C)CCNC(=O)c1ccc2c(c1)N(Cc1cccc(Cl)c1)C(=O)c1ccccc1S2,111.0,110.0
COc1ccc(NCc2cc3ccc(OC)cc3n(CC(=O)Nc3cc(Cl)ccc3C)c2=O)cc1,107.0,114.0
COc1cccc(C(=O)Nc2c(C(=O)c3ccc(F)cc3)oc3ccccc23)c1,104.0,108.0
CN1CCc2c(sc3c2C(=O)NC(c2ccc(OC(=O)c4ccc(C(C)(C)C)cc4)cc2)N3)C1 (stereo not given),84.0,233.0
